Screens as filed in PubChem BioAssay.
CtBP-E1A blk: blocks the CtBP interaction with E1A; 340,000 tested, 0.49% active; AID 651724; activity change, % (no concentration beside the values); AlphaScreen GST-E1A/His-CtBP binding, 1536-well; stronger effect = lower value; control for the full effect not named in the record; in the data active means activity change below about -65%; inconclusive means about -30% to -65%; inactive means above about -30%; note: % is set by controls: 0 for no effect and ±100 for the full control effect; compound concentration not given in the record
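GST-E1A and His-tagged CtBP (125 nM each as 5X stock) were preincubated with pin-transferred compound for 2 h at 37 °C in the dark, then glutathione donor and nickel acceptor beads were added for 1 h before AlphaScreen reading.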
TRPML1 ag: human mucolipin-1 channel agonism. Q9GZU1. TRPML1-expressing cells, Ca2+ dye fluorescence, FDSS; host cell line not named in the record; reference of the full effect not given here. activation, % (test concentration not listed). 410,000 tested, 0.12% active; in the data active = activation above about 50%; inconclusive = about 30% to 50%; inactive = below about 30%; note: 0% is about no effect; the text of the record puts the active cut at 80%
Target sequence (Q9GZU1 whole entry, looked up): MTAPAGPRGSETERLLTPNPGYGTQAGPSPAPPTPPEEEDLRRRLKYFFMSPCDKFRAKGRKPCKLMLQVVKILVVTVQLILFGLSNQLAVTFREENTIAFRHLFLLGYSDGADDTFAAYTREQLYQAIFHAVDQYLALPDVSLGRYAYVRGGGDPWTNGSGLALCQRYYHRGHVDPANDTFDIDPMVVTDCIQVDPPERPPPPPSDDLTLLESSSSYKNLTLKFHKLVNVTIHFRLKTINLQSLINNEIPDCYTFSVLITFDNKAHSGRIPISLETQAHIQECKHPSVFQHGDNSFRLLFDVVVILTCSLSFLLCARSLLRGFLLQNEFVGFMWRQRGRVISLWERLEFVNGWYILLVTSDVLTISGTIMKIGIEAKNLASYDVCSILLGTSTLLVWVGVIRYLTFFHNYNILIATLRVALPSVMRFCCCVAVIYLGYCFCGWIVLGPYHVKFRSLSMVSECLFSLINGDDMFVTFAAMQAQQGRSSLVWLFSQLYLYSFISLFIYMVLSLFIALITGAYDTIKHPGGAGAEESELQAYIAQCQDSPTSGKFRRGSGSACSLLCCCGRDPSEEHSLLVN
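Agonist activity was taken from a 110 s kinetic Ca2+ dye read on the FDSS after pinning compounds onto TRPML1-DL cells. The cells were seeded at 1,500/well with Tet inducer, incubated about 16 h, then dye-loaded at room temperature.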
D2 agonist: agonists of human D2 dopamine receptor (beta-arrestin); P14416; DiscoveRx PathHunter D2 beta-arrestin, luminescence, 90 min; 100% = 57 uM dopamine signal; activation, % (test concentration not listed); 360,000 tested, 0.084% active; AID 624465; in the data active = activation above about 40%; inconclusive = about 15% to 40%; inactive = below about 15%; note: compound concentration not given in the record; the text of the record calls up to 30% inactive
Target sequence (P14416 whole entry, looked up): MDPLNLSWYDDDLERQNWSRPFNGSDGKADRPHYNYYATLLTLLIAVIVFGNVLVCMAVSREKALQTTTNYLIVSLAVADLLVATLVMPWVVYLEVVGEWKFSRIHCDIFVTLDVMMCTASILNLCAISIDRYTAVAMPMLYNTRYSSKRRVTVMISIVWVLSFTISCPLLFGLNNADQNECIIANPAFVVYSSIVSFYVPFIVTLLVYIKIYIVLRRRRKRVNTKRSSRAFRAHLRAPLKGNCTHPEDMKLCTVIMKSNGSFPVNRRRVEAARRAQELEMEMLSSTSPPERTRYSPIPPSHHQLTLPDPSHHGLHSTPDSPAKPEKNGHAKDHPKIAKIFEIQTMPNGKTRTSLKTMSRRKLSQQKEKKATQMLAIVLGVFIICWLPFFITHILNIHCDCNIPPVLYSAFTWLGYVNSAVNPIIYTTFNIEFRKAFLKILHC
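Agonist mode: compounds alone added to overnight-plated D2 PathHunter cells for 90 min at 37 C, with 57 uM final dopamine (EC100) defining full response. Beta-arrestin recruitment detected by chemiluminescent reagent, read after 1 h at ambient temperature.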
TRPML1 blocker: blocks the human TRPML1 channel; Q9GZU1; activity change, negative = inhibition, % (test concentration not listed); TRPML1-inducible cells, Ca2+ dye fluorescence, FDSS; stronger effect = lower value; inhibition of EC80 agonist-evoked calcium signal; 390,000 tested, 0.02% active; in the data active means activity change below about -50%; inconclusive means about -30% to -50%; inactive means above about -30%;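 note: stimulus is agonist 54-4 at its EC80 concentration; % is set by controls: 0 for no effect and ±100 for the full control effect; compound concentration not given in the record; the text of the record puts the active cut at -80%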
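TRPML1-DL cells, Tet-induced overnight (~16 h, 37 °C) at 1,500 cells/well, were loaded with Ca8 no-wash dye plus quencher for 45-90 min at room temperature. Compounds were pinned during FDSS kinetic reading; agonist 54-4 at EC80 (4 uM final) then added.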
PINK1 expr mod: PINK1 expression modulation | PINK1 immunofluorescence, high-content cytometry, 24 h | Potency, µM (doses to about 76.6 µM), for the others: at the top dose activation (PINK1 increase), hits mostly activators | 410,000 tested, 0.2% active | AID 624263; active = well fitted activation curve with a large enough effect; inconclusive = small, poorly fitted or top-dose-only effect; inactive = flat fitted curve, though single readings scatter; cell line not stated here;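 note: potency is the fitted concentration of half-maximal effect; % of control where 0% means no effect; nearly all actives have a fitted effect of over 65% in size; a mitochondrial uncoupler was the plate control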
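Stable cell line treated 24 h with compounds at 5 concentrations (CCCP controls), then fixed and immunostained for PINK1 plus nuclear and cell stains; PINK1 immunofluorescence quantified by laser-scanning microplate cytometry.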
Six1-Eya2 blk: Six1/Eya2 interaction inhibition; Q15475+O00167; AlphaScreen GST-Six1/His-Eya2 binding, biochemical; stronger effect = lower value; control for the full effect not named in the record; activity change, % (test concentration not listed); 360,000 tested, 0.56% active; AID 651725; in the data active = activity change below about -65%; inconclusive = about -30% to -65%; inactive = above about -30%; note: % is set by controls: 0 for no effect and ±100 for the full control effect; compound concentration not given in the record
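GST-Six1 + His-Eya2 (5X stock: 250/500 nM); Tris pH 8.0, 300 mM NaCl, 0.05% BSA, 0.02% Tween 20; GSH donor/Ni acceptor beads; 1 h 37 °C dark; AlphaScreen readout.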
Numbers without * were called inactive; ? = inconclusive; . = no result given; & = joins results of further samples; [ ] = remark or other dose.

The first 2 records, to show the layout:
SMILES	CtBP-E1A blk	TRPML1 ag	D2 agonist	TRPML1 blocker	PINK1 expr mod	Six1-Eya2 blk
CC(C)OCCCNC(=O)c1ccc(-n2c(-c3ccccc3)cc3c2CCCC3)cc1	.	1.8	.	12	1.0%	.
CCN(CC)c1ccc(/C=N/NC(=O)c2nnn(-c3nonc3N)c2C(C)C)c(O)c1	?	0.7	-3.0	-21	14%	-6

All compounds of this part, from the start:
SMILES	CtBP-E1A blk	TRPML1 ag	D2 agonist	TRPML1 blocker	PINK1 expr mod	Six1-Eya2 blk
CC(C)OCCCNC(=O)c1ccc(-n2c(-c3ccccc3)cc3c2CCCC3)cc1	.	1.8	.	12	1.0%	.
CCN(CC)c1ccc(/C=N/NC(=O)c2nnn(-c3nonc3N)c2C(C)C)c(O)c1	?	0.7	-3.0	-21	14%	-6
CSc1nnc(-c2sccc2-n2cccc2)o1	-22	1.5	1.9	10	0.7%	-14
CCCCC[C@H](C)N1C[C@H](COCc2ccccc2)Oc2cc(N3CCC[C@H]3C(N)=O)ccc2S1(=O)=O	0	-0.4	.	.	7.2%	3
Cc1occc1C(=O)N=Nc1c(O)n(C)c2ccccc12	0	1.0	-0.8	-17	0.2%	30
COc1ccc(Cn2c(C)c(C)c(C#N)c2NC(=O)Nc2ccc(F)cc2)cc1	3	-0.6	-0.1	-1	3.6%	-1
CCOC(=O)CN1C(=O)COc2ccc(Cl)cc21	4	0.3	-3.5	39	8.8%[38.3 µM]	2
CCCCNS(=O)(=O)c1cccc(NC(=O)[C@@H]2O[C@H](CO)[C@H](O)[C@H](O)[C@H]2O)c1	-13	-0.4	-5.0	49	0.9%	-16
CN1CCN(S(=O)(=O)c2cccc(C(=O)Nc3sccc3C#N)c2)CC1	?	0.3	1.9	0	4.5%	-28
O=C1CC(=O)Nc2cc(S(=O)(=O)N3CCOc4ccccc43)ccc2N1	-8	-0.2&0.5	-8.5	5&14	-0.8%&-1.1%	5
Cc1ccc([N+](=O)[O-])cc1NC(=O)C1CCCC1	5	-0.5	-0.5	-10	1.5%	-1
O=C(CC1OCC2CCCN2C1=O)Nc1ccc([N+](=O)[O-])cc1 (stereo not drawn)	-3	-0.4	-1.2	23	-0.1%	-4
COc1ccc(N2CCN(S(=O)(=O)c3ccc(F)c(C(=O)Nc4ccccc4Cl)c3)CC2)cc1	.	-0.2	.	4	9.4%	.
COc1ccc(S(=O)(=O)Nc2ccc3c(c2)C(=O)N([C@H](C)CO)C[C@H](C)[C@@H](CN(C)S(=O)(=O)c2cccs2)O3)cc1	-22	0.3	0.9	-5	1.7%	-4
O=C(CSc1nc(-c2ccco2)cc(C(F)(F)F)n1)NCCN1CCOCC1	0	-0.3	-2.1	22	1.2%	8
CC1(C)CC(=O)C(C(c2ccccc2F)C2C(=O)CC(C)(C)CC2=O)C(=O)C1	-6	-0.8	-2.4	12	8.7%	5
N#C/C(=C\C=C\c1ccccc1)C(=O)Nc1ccccc1	4	0.0	-1.0	-1	?	5
COc1ccc(C)cc1NC(=O)CO/N=C(\N)CC(=O)Nc1ccccc1OC	.	-0.5	-1.9	9	1.0%	-1
C=CCSc1nc2c(c(=N)n1CC=C)C1CCCC1S2 (stereo not drawn)	17	0.7	-2.3	8	2.8%	16
Cc1ccc(C)c(-n2ccnc2SCC(=O)Nc2cccc(S(=O)(=O)NC3=NCCC3)c2)c1	-2	2.9	9.2	-1	-0.2%	-7
CC1=CCC2C(=O)N(c3cccc(C(=O)Nc4ccccc4Cl)c3)C(=O)C2C1 (stereo not drawn)	1	0.3	-1.6	6	4.6%	1
N=c1n(CCN2CCCC2)c2ccccc2n1CC(O)c1ccc(Cl)c(Cl)c1 (stereo not drawn)	.	1.5	-4.1	9	-1.5%	-3
Cc1ccc(NC(=O)c2cn3c4c(ccc(Cl)c4c2=O)OC(C)C3)cc1C (stereo not drawn)	.	4.3	.	19	1.1%	.
COc1cccc(C(NC(C)=O)c2nc(-c3cccc(O)c3)cs2)c1 (stereo not drawn)	-5	-0.3	-2.7	.	6.0%	-5
Cc1cc(=O)oc2c(C)c(OC(C)C(=O)NCCCn3ccnc3)ccc12 (stereo not drawn)	-9	-0.7	7.7	-2	-1.7%	2
Further entries.
SMILES	CtBP-E1A blk	TRPML1 ag	D2 agonist	TRPML1 blocker	PINK1 expr mod	Six1-Eya2 blk
S=c1[nH]nc(COc2ccc(Cl)cc2)n1-c1ccc(Cl)cc1	-6	-0.1	1.6	2	5.3%	-26
S=C(c1ccc(-c2ccccc2)o1)N1CCCCC1	?	-0.9	-4.3	-2	3.5%	?
Cc1nc2c(S(=O)(=O)c3ccccc3)cnn2c(C)c1C	-2	0.1	0.5	-7	0.5%	-2
O=C(NC1CCCCC1)c1ccc(COCC(F)(F)F)o1	3	-1.0	-3.8	9	-2.1%	4
O=C(Cn1ncn2nc(-c3cccs3)cc2c1=O)NCc1cccc(Br)c1	.	-0.5	.	-5	4.0%	.
CCC(C)C1NC(=S)N(C2CCCCC2)C1=O (stereo not drawn)	1	-0.4	1.7	8	5.7%[38.3 µM]	1
CCOC(=O)c1cc(-c2ccccc2)n(CC(=O)Nc2cc(OC)cc(OC)c2)c1C	-18	0.6	-2.5	39	11%	-12
CC(=O)c1cccc(OCc2cc(C(=O)N(C)Cc3cnccn3)no2)c1	2	1.0	1.7	2	-0.7%	2
CC(=O)c1cn(-c2ccc(Cl)cc2)c(=O)n(Cc2ccc(F)cc2)c1=O	-1	1.7	-19	-9	5.7%	-2
CC(C)N(C(=O)[C@H]1CC(CC(=O)NCCCn2ccnc2)C(=O)N2CCc3c([nH]c4ccccc34)[C@]12C)C(C)C (stereo partly drawn)	-13	0.1	-0.2	-9	-0.8%	9
Cc1ccc(N2CC(=O)N(NC(=O)c3sc4nc(C)cc(C)c4c3N)CC2=O)cc1	-3	0.9	4.9	-13	9.5%	-3
CN(C)C(=O)NC(Nc1ccc(Cl)cc1Cl)C(Cl)(Cl)Cl (stereo not drawn)	20	-0.2	-1.6	-6	-0.5%[38.3 µM]	2
C=CCn1c(Oc2ccccc2F)nc2c1c(=O)n(C)c(=O)n2C	-3	1.8	-2.0	-22	0.1%	2
Cn1c(N)c(C(=O)COC(=O)/C=C/c2ccccc2Cl)c(=O)n(C)c1=O	-3	0.2	0.8	-6	1.1%	-3
O=C(OCC1CCCO1)c1ccc2c(c1)N(Cc1c(F)cccc1Cl)C(=O)c1ccccc1S2(=O)=O (stereo not drawn)	.	3.1	.	9	0.2%	.
Cc1cc(NC(=O)c2cnn(-c3ccccc3)c2-n2cccc2)ccc1Br	.	-0.1	.	9	-0.1%	.
O=C(NCc1ccc(Cl)cc1)C(=O)c1c[nH]c2ccccc12	11	2.1	2.1	5	12%	-5
CCOc1ccc(NC(=O)c2cc(S(=O)(=O)N3CCN(c4ccccc4F)CC3)ccc2F)cc1	.	0.0	.	-20	-0.7%	.
COc1nc(N)nc(CC(=O)C2CC2)n1	-2	-0.2	-2.7	-10	1.3%	-5
CC(=O)N1CCc2cc(Br)cc(S(=O)(=O)N3CCCCCC3)c21	-2	-0.2	-3.3	7	1.9%	-1
CC(C)(C)c1ccc(C(=O)N2CCC2(C)C(=O)Nc2cccc(C#N)c2)cc1 (stereo not drawn)	5	0.2	-3.0	.	1.2%	-1
CCCCC[C@@H](C)N1C[C@@H](COCc2ccccc2)Oc2cc(N3CCC[C@@H]3CO)ccc2S1(=O)=O	1	0.5	.	.	14%	-8
CCOc1cc(C2C(C(=O)OC)=C(C)N=C3SC(C)C(=O)N32)ccc1OC(C)=O (stereo not drawn)	9	0.7	-3.0	19	0.2%	-3
Cc1ccc(Sc2ccc(N)cn2)cc1	5	0.1	-1.3	3	3.1%	0
O=C(CCNS(=O)(=O)c1ccc(Br)cc1)NCc1ccco1	-19	0.4	-3.8	3	2.0%	-2
Next part
SMILES	CtBP-E1A blk	TRPML1 ag	D2 agonist	TRPML1 blocker	PINK1 expr mod	Six1-Eya2 blk
COc1nc(OC)nc(N2CCC(C(=O)Nc3cccc4c3CCCC4)CC2)n1	-25	0.0	-0.8	-12	.	-11
O=C(Nc1ccc(F)cc1)N(Cc1nnc2n1CCCCC2)c1ccccc1	6	0.7	-3.3	5	0.4%	4
Cc1cc(C)nc(NC(=O)c2ccc([N+](=O)[O-])o2)n1	6	0.5	-1.4	-14	4.2%	0
CCOC(=O)C1=CCC2C(=O)N(C3CCCCC3)C(=O)C12 (stereo not drawn)	5	-0.6	-1.4	8	-0.4%	8
COc1ccc(S(=O)(=O)NCc2ccc3c(c2)CCN3C(=O)c2ccc(C)cc2)cc1Cl	.	0.9	.	4	-1.1%	.
Cc1ccc(S(=O)(=O)NCC2(c3ccccc3)CCN(C)CC2)cc1	-2	-0.3	-5.8	2	-0.5%	3
Cc1ccc(C)c(C(=O)Cn2c(NCCO)nc3ccccc32)c1	0	0.8	-1.3	-8	-1.0%	-1
CC(C)CCNC(=O)Cn1nc(N2CCN(c3ccccc3)CC2)ccc1=O	.	2.7	.	14	3.3%	.
COCCNC(=O)CN1CCN(C(c2ccccc2)c2ccccc2)CC1	11	-0.5	-3.2	-4	.	-1
COc1cccc(OC)c1C(=O)N1CCN(Cc2cccnc2)CC1	0	0.4	-3.7	5	0.5%	4
CC(C)Cn1c(SC(C)C(=O)NCC2CCCO2)nc2ccc(Cl)cc2c1=O (stereo not drawn)	-12	0.9	-5.7	34	2.7%	5
CC(C)(C)C(=O)Nc1ccc2nc(SCc3ccccc3)sc2c1	.	0.4	.	11	21%	.
CCOC(=O)/C(C#N)=C/c1cc(C)n(-c2ccc(C)cc2)c1C	-3	0.9	0.9	3	1.8%	0
Cc1cc(NC(=O)C(C)Sc2nc(-c3ccccc3)cc(=O)[nH]2)no1 (stereo not drawn)	-12	-0.8	1.5	-4	-1.5%	2
COC(=O)C1=CN(Cc2ccc(OC)cc2)C=C(C(=O)OC)C1c1ccc(O)c(OC)c1	8	0.1	0.0	-14	12%	2
CCC(C(=O)NCC1CCCO1)N(Cc1ccccc1)C(=O)CNS(=O)(=O)c1ccccc1 (stereo not drawn)	-2	-1.4	-5.0	3	3.8%	9

Entries of single compounds, quoted from the list. Values in the order: CtBP-E1A blk | TRPML1 ag | D2 agonist | TRPML1 blocker | PINK1 expr mod | Six1-Eya2 blk
Shown for Cc1ccc(S(=O)(=O)NCC2(c3ccccc3)CCN(C)CC2)cc1 : -2 | -0.3 | -5.8 | 2 | -0.5% | 3
Shown for COc1nc(OC)nc(N2CCC(C(=O)Nc3cccc4c3CCCC4)CC2)n1 : -25 | 0.0 | -0.8 | -12 | . | -11
Shown for Cc1cc(NC(=O)C(C)Sc2nc(-c3ccccc3)cc(=O)[nH]2)no1 (stereo not drawn) : -12 | -0.8 | 1.5 | -4 | -1.5% | 2

Part of the list above in order of SMILES length, ascending:
SMILES	CtBP-E1A blk	TRPML1 ag	D2 agonist	TRPML1 blocker	PINK1 expr mod	Six1-Eya2 blk
Cc1cc(C)nc(NC(=O)c2ccc([N+](=O)[O-])o2)n1	6	0.5	-1.4	-14	4.2%	0
CC(C)CCNC(=O)Cn1nc(N2CCN(c3ccccc3)CC2)ccc1=O	.	2.7	.	14	3.3%	.
COC(=O)C1=CN(Cc2ccc(OC)cc2)C=C(C(=O)OC)C1c1ccc(O)c(OC)c1	8	0.1	0.0	-14	12%	2
